Screening data: PubChem, National Center for Advancing Translational Sciences (NCATS)
VDR inhibitor = vitamin D3 receptor (human) inhibition. P11473. VDR-SRC2-3 peptide fluorescence polarization, 2 h. Potency, µM, without a hit: max response, negative = inhibition, most hits filed as inhibitors. 400,000 compounds, 0.93% hits. AID 504847; active = well fitted inhibition curve with a large enough effect; inconclusive = small, poorly fitted or top-dose-only effect, or another doubt; inactive = no such curve, though single readings can be large or run the other way; also: series mostly up to about 120 µM
Target sequence (P11473 whole entry, looked up): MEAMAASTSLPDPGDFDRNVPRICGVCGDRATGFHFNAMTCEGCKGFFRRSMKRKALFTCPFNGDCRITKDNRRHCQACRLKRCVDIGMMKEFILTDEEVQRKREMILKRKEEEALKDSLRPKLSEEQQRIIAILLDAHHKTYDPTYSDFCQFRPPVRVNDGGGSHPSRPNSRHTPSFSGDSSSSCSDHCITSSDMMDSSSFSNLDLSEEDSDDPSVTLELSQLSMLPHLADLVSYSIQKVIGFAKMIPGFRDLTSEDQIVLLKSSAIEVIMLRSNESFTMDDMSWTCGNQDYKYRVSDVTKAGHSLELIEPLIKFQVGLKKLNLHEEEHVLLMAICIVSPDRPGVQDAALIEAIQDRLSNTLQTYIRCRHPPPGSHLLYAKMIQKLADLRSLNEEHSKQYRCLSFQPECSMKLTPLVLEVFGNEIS
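FP read-out; VDR + SRC2-3 coactivator peptide; 23 nl compound by pintool; 2 h RT incubation; reagents held at 4 deg C, protected from light.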
* marks the source's active call; other numbers are inactive results; ? = inconclusive; & = joins results of further samples. % is scaled to controls: 0 for no effect and ±100 for the full control effect; potency is read from the fitted curve at half-maximal effect. The list is partial; rates above refer to the full screens.

SMILES	VDR inhibitor
CC1C/C(=N/NC(=O)c2cccc(F)c2)c2ccc(O)cc2C1 (configuration not stated)	15%
O=C(C[n+]1cccc(/C=N/O)c1)N1CCCCCC1	-25%
CC1=C(C(=O)OC(C)C)[C@@H](c2cccc3nonc23)C([N+](=O)[O-])=C(C)N1	-21%
CNCCCC1c2ccccc2C=Cc2ccccc21	0%&0%&2%
CN(C1CCCC1)C1CCN(C(=S)Nc2cc(F)cc(F)c2)CC1	3%
COC(=O)C1C(c2ccc(N(C)C)cc2)C(C(=O)OC)S(=O)(=O)CS1(=O)=O (configuration not stated)	-19%
CCCCn1c(N)c(N(CCC(C)C)C(=O)CC2CCCC2)c(=O)[nH]c1=O	0%
Cc1c(CCO)c(=O)n2n1CCCC2	-7%
CC(C)c1ccc(Cn2ccc3c4c(N)nc(NC5CC5)nc4ccc32)cc1	0%
COc1ccc(CSc2nnc(-c3ccncc3)n2N)cc1	18%
O=C(/C=C/Nc1ccccc1C(F)(F)F)c1ccco1	-10%
O=C(c1ccc(OC2CCN(CCc3ccccc3)CC2)cc1)N1CCC(CO)CC1	19%
O=C(/C(=N\Nc1ccccc1)Sc1nnnn1-c1ccccc1)c1ccccc1	-9%
Cc1ccc(-n2ncc3c(Nc4cccc(C)c4C)ncnc32)cc1	-11%
COc1ccc(OC)c(S(=O)(=O)NCCc2csc3nc(-c4ccccc4)nn23)c1	-5%
CCN(CCCNC(=O)c1c(C)cc(=O)oc1C)c1cccc(C)c1	-17%
COCCOc1cc(N2C(=O)CSCC2=O)c(Cl)cc1Cl	8%
CC(C)(C)C(=O)OCC(=O)C1CCC2C3CCC4=CC(=O)CCC4(C)C3CCC12C (configuration not stated)	-5%
O=C(NCc1nnc(SCc2ccccc2)n1-c1ccc(F)cc1)C12CC3CC(CC(C3)C1)C2	-2%
COc1ccc(C(C)=O)cc1CSc1nc2cc(C(=O)O)ccc2c(=O)n1Cc1ccccc1	-6%
Cc1cc(=O)oc2cc(OCC(=O)N3CCc4ccccc4C3)ccc12	-3%
CCC(NC(=O)Nc1ccc(O)cc1)(C(F)(F)F)C(F)(F)F	-11%
COc1ccccc1C(=O)Nc1nnc(SCC(=O)Nc2ccc3c(c2)oc2ccccc23)s1	-12%
C=C(C(=O)O)C(CCCCCC)C(=O)O (configuration not stated)	-4%
Cc1oc(-c2ccccc2Cl)nc1CSc1nc2ncccc2[nH]1	13%

In another format: entries from further up.
SMILES | VDR inhibitor
O=C(/C(=N\Nc1ccccc1)Sc1nnnn1-c1ccccc1)c1ccccc1 | -9%
Cc1ccc(-n2ncc3c(Nc4cccc(C)c4C)ncnc32)cc1 | -11%
COc1ccc(OC)c(S(=O)(=O)NCCc2csc3nc(-c4ccccc4)nn23)c1 | -5%
CCN(CCCNC(=O)c1c(C)cc(=O)oc1C)c1cccc(C)c1 | -17%

More entries:
SMILES	VDR inhibitor
CCN(CC)N=Nc1ccc(S(N)(=O)=O)cc1	-15%
COc1cccc(NC(=O)CN2C(=O)NC3(CCCc4ccccc43)C2=O)c1 (configuration not stated)	-5%
COc1ccc(-n2c(C)c(C)c3c(NCCCN(C)C)ncnc32)cc1	-12%
Cc1ccc(Cl)cc1-n1ncc2c(N3CCC(C)CC3)ncnc21	-5%
CC(C)NC(=O)C1CCN(c2ccc(S(=O)(=O)N3CCOCC3)cc2Cl)CC1	29%
Cc1ccccc1-n1ncc2c1CC(C)(C)CC2NC(=O)CN1CCCC1=O (configuration not stated)	-11%
CCCOP(=O)(c1ccccc1)c1ccccc1	-4%
C/C(=N/NC(=O)C1CC1(c1ccccc1)c1ccccc1)c1ccco1 (configuration not stated)	-16%
O=C(NCCS(=O)(=O)N1CCN(c2ccc(F)cc2)CC1)c1ccco1	4%
Cc1cc(NC(=O)C(Cl)c2ccccc2)no1 (configuration not stated)	6%
COc1cc(CC(NC(C)=O)C(=O)NC2CCN(C(=O)c3ccc(C)cc3)CC2)cc(OC)c1 (configuration not stated)	-2%
CCOC(=O)C1=CN(Cc2cccc(F)c2)S(=O)(=O)N(C)C1c1ccc(F)c(Cl)c1 (configuration not stated)	-3%
O=S(=O)(Nc1ccccc1)c1ccc(Oc2ncc(C(F)(F)F)cc2Cl)cc1	3%
CCc1nnc(NC(=O)CCC(=O)Nc2ccc(Cl)cc2)s1	-2%
COc1ccc(-c2[nH]ncc2CNCC(C)(C)N2CCOCC2)cc1F	5%
O=C(Nc1ccccc1Br)C1CCN(S(=O)(=O)c2cccs2)CC1	-19%
Cc1cc(C)n(CCSCC(=O)O)n1	1%
CCOc1ccc(-c2cc(C)n3nc(C(=O)Nc4ccc(C)c(C)c4)cc3n2)cc1	-5%
Nc1c(C(=O)Nc2ccccc2)c2nc3ccccc3nc2n1-c1ccc(O)cc1	-11%
CCCn1nnc(NC(=O)c2ccco2)n1	-9%
CCN(CC)S(=O)(=O)c1cc(C(=O)N=c2sccn2C)ccc1OC	-15%
CC(C)(C)c1ccc(S(=O)(=O)N2CCSC2)cc1	-28%
Cc1cccc(-c2nc(S(=O)(=O)c3ccc(F)cc3)c(N3CCN(c4ccccc4)CC3)o2)c1	8%
COc1ccc(OC)c(NC(=O)c2nc(S(=O)(=O)Cc3ccccc3)ncc2Cl)c1	10µM*
COCCn1cnc2c1c(=O)n(CC(=O)Nc1cc(C)on1)c(=O)n2Cc1ccccc1	9%

More records
SMILES	VDR inhibitor
CCCN(Cc1cccs1)C(=O)Nc1ccc(F)c(Cl)c1	-1%
CCOC(=O)CSc1nc2c(c(=O)[nH]c(=O)n2C)n1CCc1ccccc1	8%
CCC(=O)Nc1ccc(NC(=O)CSc2nnnn2-c2ccc(OC)cc2)cc1	-15%
CC1(C(=O)O)CCC(C(=O)NNC(=O)c2ccccc2Cl)C1(C)C (configuration not stated)	12%
N#CCCN1CCN(S(=O)(=O)c2ccc(S(=O)(=O)N3CCCC3)cc2)CC1	6%
COCCCNc1nc(NCc2cccc(Cl)c2)c2cnn(C)c2n1	9%
Cc1c(C(=O)N(C)C)c2ccc(Cl)cc2n1O	26%
CC(C)NCCCOc1ccc(Cl)cc1Br	2%
COCC(=O)Nc1cc([N+](=O)[O-])ccc1OC	-13%
CCCSc1nc(SCC(=O)NCc2ccccc2)c2c3c(sc2n1)COC(C)(C)C3	11%
O=C(NNC(=O)C1CCN(S(=O)(=O)c2ccccc2C(F)(F)F)CC1)c1ccccc1O	-26%
N#Cc1ccc(C23CC4(C2)[C@H](CN(CC2CCCCC2)[C@@H]4c2ccccc2)C3c2ccc(Cl)nc2)cc1 (some centres not stated)	-16%
CCOC(=O)C(NC(=O)c1ccc(OC)cc1)(N1CCOCC1)C(F)(F)F (configuration not stated)	-2%
Cc1ccc2cc(C=O)c(N3CCOCC3)nc2c1C	-22%
O=C(Nc1cc(F)ccc1F)C1CCN(c2nc3ccccc3n3cccc23)CC1	4%
COc1ccc(OC)c2sc(NC(=O)CCSc3ccccc3)nc12	13%
COc1ccc(-n2c(NN)nc3sc4c(c3c2=O)CCCC4)cc1	-8%
CN(C)/C=N/c1ncc(C(=O)c2ccc3ccccc3c2)s1	0%
CCc1nn(CC(=O)Nc2ccc(NC(C)=O)cc2)c(=O)c2cc3sccc3n12	-27%
CCCN1CCC(=NNc2ccc(S(N)(=O)=O)cc2[N+](=O)[O-])CC1	-28%
NC(=S)N/N=C/c1ccccc1[N+](=O)[O-]	-7%
CS(=O)(=O)N(CC(=O)N1CCCC1)c1ccc(Cl)cc1	19%
O=c1/c(=C/c2ccco2)sc2n1CN(c1cccc(Br)c1)CN=2	-13%
O=C(Nc1nnc(C(F)(F)F)s1)c1c(F)cccc1F	0%
COC(=O)c1cc(C(=O)N2CCN(c3ccccc3OC)CC2)cc([N+](=O)[O-])c1	5%

In another format: entries from further up.
molecule | VDR inhibitor
CCCN(Cc1cccs1)C(=O)Nc1ccc(F)c(Cl)c1 | -1%
CCOC(=O)CSc1nc2c(c(=O)[nH]c(=O)n2C)n1CCc1ccccc1 | 8%
CCC(=O)Nc1ccc(NC(=O)CSc2nnnn2-c2ccc(OC)cc2)cc1 | -15%
CC1(C(=O)O)CCC(C(=O)NNC(=O)c2ccccc2Cl)C1(C)C (configuration not stated) | 12%
N#CCCN1CCN(S(=O)(=O)c2ccc(S(=O)(=O)N3CCCC3)cc2)CC1 | 6%
COCCCNc1nc(NCc2cccc(Cl)c2)c2cnn(C)c2n1 | 9%
Cc1c(C(=O)N(C)C)c2ccc(Cl)cc2n1O | 26%
CC(C)NCCCOc1ccc(Cl)cc1Br | 2%
COCC(=O)Nc1cc([N+](=O)[O-])ccc1OC | -13%
CCCSc1nc(SCC(=O)NCc2ccccc2)c2c3c(sc2n1)COC(C)(C)C3 | 11%
O=C(NNC(=O)C1CCN(S(=O)(=O)c2ccccc2C(F)(F)F)CC1)c1ccccc1O | -26%
N#Cc1ccc(C23CC4(C2)[C@H](CN(CC2CCCCC2)[C@@H]4c2ccccc2)C3c2ccc(Cl)nc2)cc1 (some centres not stated) | -16%
CCOC(=O)C(NC(=O)c1ccc(OC)cc1)(N1CCOCC1)C(F)(F)F (configuration not stated) | -2%
Cc1ccc2cc(C=O)c(N3CCOCC3)nc2c1C | -22%
O=C(Nc1cc(F)ccc1F)C1CCN(c2nc3ccccc3n3cccc23)CC1 | 4%
COc1ccc(OC)c2sc(NC(=O)CCSc3ccccc3)nc12 | 13%
COc1ccc(-n2c(NN)nc3sc4c(c3c2=O)CCCC4)cc1 | -8%
CN(C)/C=N/c1ncc(C(=O)c2ccc3ccccc3c2)s1 | 0%
CCc1nn(CC(=O)Nc2ccc(NC(C)=O)cc2)c(=O)c2cc3sccc3n12 | -27%
CCCN1CCC(=NNc2ccc(S(N)(=O)=O)cc2[N+](=O)[O-])CC1 | -28%
NC(=S)N/N=C/c1ccccc1[N+](=O)[O-] | -7%

Continuation:
SMILES	VDR inhibitor
CC(=O)Oc1ccccc1C(=O)N1CCN(S(=O)(=O)c2ccc3ccccc3c2)CC1	5%
CC(C)c1cc(C(=O)NNC(=S)NC2CCCCC2)cs1	-12%
O=C(Nc1cc(Cl)ccc1O)C1CC(c2c(F)cccc2Cl)=NO1 (configuration not stated)	-22%
CCOC(=O)c1cn(CC)c2cc3c(cc2c1=O)OCO3	?
CC1CCC(NC(=O)CN2C(=O)NC3(CCCCC3C)C2=O)CC1 (configuration not stated)	-4%
COc1ccc(CNC(c2ccccc2)c2ccc(Cl)cc2)cc1 (configuration not stated)	7%
CC(C)C(=O)Nc1nnc(SCC(=O)NCc2ccco2)s1	-10%
Cc1cccc(C)c1NC(=O)N1C(C(=O)O)CSC1C(=O)O (configuration not stated)	-11%
N#CC1=C(N)N(c2ccc(Cl)c(Cl)c2)C(=O)C1	-4%
Cc1ccc(C(=O)C2=C(O)C(=O)N(Cc3cccnc3)C2c2ccc(Cl)c(Cl)c2)o1 (configuration not stated)	-22%
CC(C)OC(=O)C1C(=O)CC(C)(O)C(C(=O)OC(C)C)C1c1ccc(F)cc1 (configuration not stated)	1%
COC(=O)c1cccc(C(=O)N2CCCC(C(=O)c3cc(F)ccc3F)C2)c1 (configuration not stated)	-6%
CN(CC(=O)Nc1cccc2ccccc12)C(=O)/C=C/c1cccs1	-30%
CC(C)CC(COCc1cccc(Cl)c1)N1CCN(C(=O)c2ccc(C(F)(F)F)cc2)CCC1=O (configuration not stated)	-7%
COCCNC(=O)c1cc(-c2ccccc2)n(CC2CC(c3ccc(OC)cc3)=NO2)n1 (configuration not stated)	-20%
CC(Oc1ccc(Cl)cc1)C(=O)NCCCn1ccnc1 (configuration not stated)	7%
C=CCC[C@@H](Cc1ccc(F)cc1)C(=O)OC[C@H](Cc1c[nH]c2ccccc12)NC(=O)[C@@H](CC=C)CC(=O)N(CCO)Cc1ccccc1	-5%
CN1CCN(c2ncnc3c2[nH]c2ccc(F)cc23)CC1	-8%
COc1ccc(Cl)cc1NS(=O)(=O)c1ccc2c(c1)NC(=O)CCS2	-7%
Cc1ccc2c(c1)C1(C)C(C(C)(C)N2C=O)C1(Cl)Cl (configuration not stated)	-16%
CC(C)CCN(Cc1ccco1)S(=O)(=O)c1csc(C(N)=O)c1	-4%
Cn1cccc1/C=N/NC(=O)c1cc2ccccc2cc1O	-16%
CCc1ccccc1NC(=O)COC(=O)c1cccs1	0%
OCCC1CN(CCCn2cccn2)CCN1C1CCCCC1 (configuration not stated)	0%
N#C/C(=C\c1cccc([N+](=O)[O-])c1)C(=O)NCC1CCCO1 (configuration not stated)	-27%

(list continues)
SMILES	VDR inhibitor
COc1cc2c(cc1OC)C(C)N(C(=O)[C@@H](NC(=O)c1ccccc1)C(C)C)CC2 (some centres not stated)	10%
Cc1ccccc1NC(=O)c1nn(C)c(C(=O)Nc2ccccc2C)c1[N+](=O)[O-]	2%
Cc1ccc(NC(=O)NC(C)c2c(-n3cccc3)sc(C)c2C)c(C)c1 (configuration not stated)	10%
CCC(=O)N1c2ccccc2CC1C(=O)NCCN1CCN(c2cccc(C(F)(F)F)c2)CC1 (configuration not stated)	3%
Cc1cccc(/C=N/NC(=O)c2ccc(NC(=O)c3cccc(Cl)c3)cc2)n1	-9%
CN1CCN(C(=O)C2CCC(C)(C(=O)O)C2(C)C)CC1 (configuration not stated)	13%
CC(C)c1ccc(C2CC(c3ccc(Br)cc3)=NN2C(N)=S)cc1 (configuration not stated)	11%
COc1ccccc1NC(=O)c1sc2nc(C)c(C(=O)Nc3ccc(C)cc3C)c(-c3ccco3)c2c1N	-15%
CC12CCC(C(=O)Nc3ccccc3Cl)([C@H](Br)C1=O)C2(C)C (some centres not stated)	-20%
O=C1CC(N2CCN(c3ccccc3)CC2)C(=O)N1c1ccc(Cl)cc1 (configuration not stated)	2%
COCCNC(=O)/C(C#N)=C/c1cc(Br)c(O)c(OC)c1	-2%
CCOc1ccccc1C(=O)Nc1cc(Cl)ccc1O	4%
O=C(c1ccc2c(=O)n(Cc3ccco3)c(=S)[nH]c2c1)N1CCN(c2ccccc2)CC1	-11%
O=C(CC(Cc1ccccc1)C(=O)O)Nc1ccc(Cl)c(Cl)c1 (configuration not stated)	-8%
O=C(C1CC1)N1CCc2[nH]c3ccccc3c2C1	2%
COc1ccc(Cn2cccc(NC(=O)Nc3ccc(F)cc3)c2=O)cc1	-14%
